From PubChem BioAssay
KCNQ2 pot = potentiators of rat KCNQ2 potassium channel; O88943; CHO-K1 KCNQ2, FluxOR thallium flux fluorescence; active compounds read high; B-score at 10 µM; 310,000 tested, 0.54% active;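 active means fluorescence ratio B-score at least 3 SD of library B-scores, with initial fluorescence B-score within 3 SD, cut at about 5.3 in these data; same plate scores as AID 2156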;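 further: B-score of peak minus minimum over baseline fluorescence ratio after K+ and Tl+ stimulus; positive B-score means potentiation of KCNQ2 with more thallium influx and brighter signal; only the inactives scoring about 0 or higher are listed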
Target sequence (O88943 whole entry, looked up): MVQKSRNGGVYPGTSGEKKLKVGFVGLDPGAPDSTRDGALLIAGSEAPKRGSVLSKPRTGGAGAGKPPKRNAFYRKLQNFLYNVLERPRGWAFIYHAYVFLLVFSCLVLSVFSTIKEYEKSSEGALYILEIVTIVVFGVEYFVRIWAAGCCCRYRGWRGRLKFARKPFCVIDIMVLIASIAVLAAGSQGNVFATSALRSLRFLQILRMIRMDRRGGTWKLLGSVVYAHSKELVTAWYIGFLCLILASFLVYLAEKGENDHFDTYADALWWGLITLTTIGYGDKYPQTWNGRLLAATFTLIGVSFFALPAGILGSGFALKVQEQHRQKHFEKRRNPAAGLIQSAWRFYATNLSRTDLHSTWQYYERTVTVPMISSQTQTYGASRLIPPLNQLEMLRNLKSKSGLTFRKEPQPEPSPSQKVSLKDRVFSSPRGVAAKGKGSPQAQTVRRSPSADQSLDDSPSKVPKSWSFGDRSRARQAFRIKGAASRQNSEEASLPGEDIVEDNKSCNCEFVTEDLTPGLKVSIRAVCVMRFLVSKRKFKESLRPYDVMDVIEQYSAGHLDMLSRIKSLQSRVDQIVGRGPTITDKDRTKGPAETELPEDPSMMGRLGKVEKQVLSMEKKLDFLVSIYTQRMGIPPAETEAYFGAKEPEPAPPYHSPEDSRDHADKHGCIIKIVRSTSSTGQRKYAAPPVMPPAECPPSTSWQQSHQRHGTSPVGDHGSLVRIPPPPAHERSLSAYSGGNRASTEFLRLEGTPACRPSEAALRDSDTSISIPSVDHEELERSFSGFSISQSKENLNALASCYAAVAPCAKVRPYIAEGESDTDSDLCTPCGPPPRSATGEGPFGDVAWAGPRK
KCNQ2 pot baseline = also measured in KCNQ2 pot; calls as there; B-score; compound at 10 µM; measured here: initial fluorescence intensity artifact check;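 brightness before thallium and not channel activity; 0 = typical well and far values either way flag optical interference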
Active calls of the source: *. A portion of the library, so the mix of outcomes need not match the whole.

SMILES	KCNQ2 pot	KCNQ2 pot baseline
O=C(Cn1cnc([N+](=O)[O-])n1)N/N=C/c1ccc(O)cc1O	0.32	-1.9
CCOC(=O)N1CCC(Nc2c(Nc3cccc(CC)c3)c(=O)c2=O)CC1	1.2	-0.09
CCNC(=O)CC1S/C(=N/N=C(\C)c2ccccc2)NC1=O (stereo not given)	0.7	-0.02
COC(=O)c1cc(CNC(=O)Cc2ccsc2)ccc1OC	0.17	0.67
COc1ccc(C)cc1Nc1n[n+](-c2ccccc2)c(-c2ccc(NC(C)=O)cc2)s1	0.32	-1.6
CC(=O)c1cccc(N=Nc2c(-c3ccccc3)[nH]n(-c3ccccc3)c2=O)c1	0.6	-0.54
Cc1cc(C)n(-c2ccc(C(=O)Nc3cccc(S(=O)(=O)N4CCCC4)c3)cc2)n1	0.25	1.5
CCOC(=O)CN1C(=O)S/C(=C\c2ccc3c(c2)OCO3)C1=O	0.09	1.2
COC(=O)[C@@H]1CCCN1C(=O)c1ccc(OC2CCN(Cc3ccccn3)CC2)cc1	0.43	0.44
COc1ccc(OC)c(S(=O)(=O)N2CCCC2C(=O)N2CCc3ccccc3C2)c1 (stereo not given)	0.02	-0.33
O=C(CCNS(=O)(=O)c1ccccc1)N1CCCCCCC1	0.26	-0.27
CCc1nnc(NS(=O)(=O)c2ccc(N/C=C\C(=O)c3cccc(OC)c3)cc2)s1	1	-2.7
COc1ccc(OC)c(-n2nnnc2SCC(=O)NCCc2ccccc2)c1	0.73	-0.48
Cc1nc(-c2coc3c(CN(C)C)c(O)ccc3c2=O)cs1	1.1	0.01
O=[N+]([O-])c1cccc(/C=C2\CCC(/C=N/Nc3ccc4ccccc4n3)=C2N2CCOCC2)c1	0.46	-1.9
CCCc1nc(Cl)c(C#N)c2c1CCCC2	2.2	2
CCN(CC)C(=O)n1cnc(-c2ccccc2)c1-c1ccccc1	1.4	-0.32
CCSCCc1nnc(NC(=O)Nc2cccc(C(F)(F)F)c2)s1	0.05	-0.54
O=C(O)c1ccc(-n2nnnc2Oc2ccccc2C(=O)N2CCOCC2)cc1	0.63	1.1
CC(C(=O)OCc1nnc(-c2ccccc2)o1)N1C(=O)C2CCCCC2C1=O (stereo not given)	1.3	-0.71
CS(=O)(=O)N(CC(=O)Nc1ccc(F)cc1)C1CCCCC1	1.3	0.91
Cc1ccc(NC(=O)CCC(=O)c2ccc(F)cc2)cc1Cl	0.59	-3
O=S(=O)(Nc1cccc(-c2nc3cccnc3s2)c1)c1cccs1	1.5	-1.1
COCCOC(=O)/C=C1/NC(=O)CS1	0.09	-1.8
Cn1c(=O)c2c(ncn2CC(=O)OCC(=O)Nc2ccccc2)n(C)c1=O	0.42	0.09
Cc1ccc(CSCCNS(C)(=O)=O)cc1	0.68	0.02
Cc1ccc(NC(=S)NNc2ncc(C(F)(F)F)cc2Cl)cc1	1.9	-1.1
O=C(O)c1ccc2c(=O)[nH]c(CCl)nc2c1	0.77	0.15
COc1cc2c(cc1NC(=O)Nc1ccc(C)cc1)oc1ccccc12	0.09	-1.7
NS(=O)(=O)c1cccc(NC(=O)Cn2nc(C(=O)O)c3ccccc3c2=O)c1	1.3	0.56
CN(CCC#N)Cc1cc(=O)oc2ccc3ccccc3c12	0.28	0.21
O=C(CSc1nnc(SCc2ccc(Cl)cc2)s1)N/N=C/c1ccccc1C(=O)O	0.78	-0.05
COc1ccnc(Oc2ccc(F)cc2)c1C(=O)N/C=N/OCc1ccc(F)cc1Cl	1.5	0.11
COc1c(C)cccc1C(=O)NC(=S)Nc1cccc2nsnc12	0.68	-0.02
O=C(NC(=S)Nc1ccc(S(=O)(=O)N2CCCCC2)cc1)c1cccs1	1.9	-1
Cc1ccc(S(=O)(=O)N/N=C/c2ccc(O)cc2O)cc1[N+](=O)[O-]	0.15	-1.8
CC1(C)CC2CN(C(=O)Cc3ccccc3)C(C)(C2)C1 (stereo not given)	0.38	0.08
COc1ccc(CNC(=O)c2nnn(-c3cccc(C(F)(F)F)c3)c2N)cc1	0.62	-1
CC(=O)N(Cc1ccccc1)c1ccccc1C(=O)O	0.84	-0.7
O=C(NNc1c(Cl)cc(Cl)cc1Cl)C1CCC1	0.94	-0.13
C/C(=N\Nc1nc2c(s1)CCCC2)c1ccccc1	3.8	-2.3
CCc1nnc(NC(=O)CCCSc2nc3ccccc3[nH]2)s1	1.5	-1.2
COc1cc(/C=C2\NC(=S)N(C)C2=O)ccc1OCc1cccc(F)c1	0.08	-0.23
Cc1cc(C)c2nc3s/c(=C/c4ccc5c(c4)n(C)c(=O)n5C)c(=O)n3c2c1	0.85	-0.54
CCOc1ccc(C(=O)NCC(=O)NCC(c2ccc(OC)cc2)N2CCCC2)cc1 (stereo not given)	0.05	0.38
CC1NC(=O)NC1CCCCCC(=O)Nc1ccc(F)cc1 (stereo not given)	0.14	-0.12
CN(C)CCNC(=O)c1c(O)c2c([nH]c1=O)CCCC2	1.4	-0.57
COCCOc1nc2c(c(=O)n(C)c(=O)n2C)n1CCc1ccccc1	0.58	2.5
Nc1nc(NCc2ccccc2)nc(Nc2ccc(F)cc2)c1[N+](=O)[O-]	1.1	1.5
COc1cc(C2NC(=O)NC(C)=C2C(=O)OC2CCC(C)CC2)ccc1O (stereo not given)	0.51	-0.67
OCCNc1nc(Nc2ccccc2)nc(Nc2ccccc2)n1	0.28	1.1
COc1ccc2c(c1)CCC(C)N2S(=O)(=O)c1ccc(C2CNC(=O)C2)cc1 (stereo not given)	0.14	-0.31
O=C(Cn1nnc(-c2ccccc2)n1)N/N=C/c1ccc(-c2ccc(Cl)cc2)o1	0.07	-0.48
Cn1c(SCC(=O)NC2CCCCC2)nnc1-c1ccccc1O	1.5	1.4
COc1ccc2cc(/C=N/NC(=O)c3c(Cl)cnn3C)c(Cl)nc2c1	0.06	-1.1
N/C(COc1ccc(Cl)cc1)=N\NS(=O)(=O)c1ccccc1	0.74	-1.3
C=CCOc1ccc(/C=N/O)cc1Cl	0.64	-0.5
CCc1nc2ccc(C(=O)NCc3ccc(C)o3)cc2nc1CC	1.1	-0.01
O=C(O)CCCC(=O)N1CCN(c2cccc(Cl)c2)CC1	0.01	-0.06
C/C(Cc1ccccc1)=N\NC(=O)CNC(=O)Cc1ccccc1	1.2	-1.9

Single records (already shown):
OCCNc1nc(Nc2ccccc2)nc(Nc2ccccc2)n1 across the screens: KCNQ2 pot: 0.28; KCNQ2 pot baseline: 1.1
O=C(CSc1nnc(SCc2ccc(Cl)cc2)s1)N/N=C/c1ccccc1C(=O)O across the screens: KCNQ2 pot: 0.78; KCNQ2 pot baseline: -0.05
O=C(Cn1nnc(-c2ccccc2)n1)N/N=C/c1ccc(-c2ccc(Cl)cc2)o1 across the screens: KCNQ2 pot: 0.07; KCNQ2 pot baseline: -0.48

(cont.)
SMILES	KCNQ2 pot	KCNQ2 pot baseline
CC(=O)Nc1ccc(C(=O)OCC(=O)N2CCCC2)cc1	0.03	1
CCOC(=O)CSc1cc(C(F)(F)F)nc(-c2ccccn2)n1	2.1	2.3
Cc1cccc(-n2ncc3c2CCCC3NC(=O)C2(C(N)=O)CC2)c1C (stereo not given)	0.59	0.53
O=S(=O)(Cc1ccc(Cl)cc1)N1CCCCCC1	0.02	-0.13
COc1ccc2nc(SCC(C)=O)c(C#N)cc2c1	0.33	2.1
COCCN(C(=O)Cc1cccs1)c1nnc(-c2cccnc2)s1	0.69	0.03
COc1ccccc1-c1cc(C(=O)Nc2cccnc2)no1	0.13	0.33
Fc1ccc(N2CCN(/C=C/c3nnnn3-c3ccccc3)CC2)cc1	1.4	-0.85
O=C(Nc1c[nH]c(=O)[nH]c1=O)c1ccccc1Cl	0.04	0.88
O=C(Nc1ccccc1C(F)(F)F)c1ncn[nH]1	0.32	2.2
CC(=O)Nc1ccc(S(=O)(=O)Nc2cc3c(cc2C(C)=O)OCO3)cc1	0.45	-0.13
CCc1cc2c(=O)oc(-c3ccccc3F)nc2s1	1.6	-0.61
COCCCNC(=S)Nc1ccc(S(=O)(=O)Nc2cc(OC)nc(OC)n2)cc1	1.6	-0.6
c1ccc(-c2ncc(CN3CCN(c4ccccn4)CC3)[nH]2)cc1	0.84	-2.9
Cc1c(Cl)cccc1NC(=O)CC1SCCNC1=O (stereo not given)	0.27	0.08
CCCCc1nc2sc3c(SCCN(C)C)ncnc3c2c2c1CCC2	4.8	0.91
CCCn1nc(-c2nnc(-c3ccc(C)c(C)c3)o2)c2ccccc2c1=O	1	0.07
C/[N+]([O-])=C\c1cccc(OCCN2CCN(c3ncc(C(F)(F)F)cc3Cl)CC2)c1	1.3	1.2
Cn1cnnc1SCCNS(=O)(=O)c1cccc([N+](=O)[O-])c1	0.01	0.51
COc1ccc(C2c3[nH]c4ccccc4c3C[C@H]3C(=O)N(C)CC(=O)N23)cc1OC (stereo not given in full)	1.4	-0.38
CN(C)C(=O)N1CCN(C(=O)c2ccccc2Sc2ccccc2C#N)CC1	0.54	-1.4
COC(=O)CCCCC(=O)C1C(=O)CC(C)(C)C(C(=O)OC)C1=O (stereo not given)	1.4	-2
COCCSc1ccccc1C(=O)Nc1ccc([N+](=O)[O-])cc1OC	0.03	-0.06
CC(C)(C)N1C(=O)c2ccc(C(=O)Nc3ccc(C(=O)O)cc3)cc2C1=O	0.15	-0.22

Sorted by value in KCNQ2 pot baseline (low to high): 6 of the compounds above
SMILES	KCNQ2 pot	KCNQ2 pot baseline
Cc1cc(C)c2nc3s/c(=C/c4ccc5c(c4)n(C)c(=O)n5C)c(=O)n3c2c1	0.85	-0.54
O=C(O)CCCC(=O)N1CCN(c2cccc(Cl)c2)CC1	0.01	-0.06
Cc1nc(-c2coc3c(CN(C)C)c(O)ccc3c2=O)cs1	1.1	0.01
CC1(C)CC2CN(C(=O)Cc3ccccc3)C(C)(C2)C1 (stereo not given)	0.38	0.08
COc1ccccc1-c1cc(C(=O)Nc2cccnc2)no1	0.13	0.33
O=C(Nc1ccccc1C(F)(F)F)c1ncn[nH]1	0.32	2.2

Additional entries:
SMILES	KCNQ2 pot	KCNQ2 pot baseline
CC(=O)Nc1ccc(NC(=O)Nc2ccc(C)cc2C)cc1	1.6	-0.05
OCCC#Cc1ccc(CN2CCN(Cc3ccsc3)C(CCO)C2)cc1 (stereo not given)	1.1	-0.69
O=C(NCC(=O)N1CCC2(CC1)NCCc1[nH]cnc12)c1ccc(Br)cc1	1.4	-1.2
COc1ccc(NC(=O)CSc2nccn2Cc2ccccc2)cc1	0.65	1.1
S=C(Nc1ccccc1Cl)NC1CCC(NC(=S)Nc2ccccc2Cl)CC1 (stereo not given)	0.11	-0.16
CCCNC(=O)c1cc(Cl)c(NC(=O)C2=C(C)OCCS2)cc1OC	0.9	0
COCCC1CCCCN1C(=O)c1ccc(OC)c(OC2CCN(C(C)=O)CC2)c1 (stereo not given)	2.2	0.01
COc1ccc(NC(=O)C23CC4CC(C2)CC(n2cnc(Br)n2)(C4)C3)c(C)c1	0.51	-0.84
CCCCN1C(N)=NC[C@@H]1C(C)O (stereo not given in full)	0.67	-1.1
O=C(CSc1nc(C2CC2)nc2c1cnn2-c1ccccc1)Nc1c[nH]c(=O)[nH]c1=O	0.98	-2.3
COCCNC(=S)NNC(=O)c1ccco1	0.21	0.89
Cc1ccc(NC2CCCN(C(=O)CCC3=NNC(=O)CC3)C2)cc1C (stereo not given)	0.43	-0.57
CN(C)CCCNC(=O)c1cc(S(=O)(=O)N2CCOCC2)ccc1F	0.5	0.22
CC(=O)NCCn1c(SCC(=O)NCC2CCCO2)nc2ccccc2c1=O (stereo not given)	1.3	-0.01
COc1ccc(S(=O)(=O)N2CCc3ccccc32)cc1C(=O)OCC(=O)c1c(N)n(C)c(=O)n(C)c1=O	0.47	1.6
CCOC(=O)CC1COCCN1Cc1cn[nH]c1-c1cc(OC)c(OC)c(OC)c1 (stereo not given)	0.21	0.4
CS(=O)(=O)N(Cc1ccc(C(=O)NCCSc2ccccn2)cc1)c1ccccc1	1	0
CCCCOc1ccc(C(=O)Nc2ccc(N3CCN(C(=O)C(C)C)CC3)cc2)cc1	0.32	-2.1
NC(=O)[C@H]1CC2(CC(c3cccc(NC(=O)COc4ccc(Cl)cc4)c3)=NO2)CN1C(=O)c1ccccc1C(=O)c1ccccc1 (stereo not given in full)	0.31	-1.9
CC1CCCC(NC(=O)C2CCCN2S(=O)(=O)c2cccc3nsnc23)C1C (stereo not given)	0.4	0.87
N#Cc1ccc2[nH]cc(CCO)c2c1	1.2	-0.69
Cc1ccc(N(Cc2ccc(C(=O)NN=C3CCN(C)CC3)cc2)S(C)(=O)=O)cc1C	0.57	-2
COc1ccc(Nc2n[nH]c(C)c2[N+](=O)[O-])cc1	0.45	0
Cc1ccc([N+](=O)[O-])cc1S(=O)(=O)N1CCN(C)CC1	0.91	-0.14
O=C1CCc2cc(S(=O)(=O)NC(Cc3ccccc3)C(=O)NCCC3=CCCCC3)ccc2N1 (stereo not given)	1.4	2.5
Cc1ccc(Cl)cc1NC(=O)N[C@@H](C)C(=O)O	0.01	-0.18
COc1cccc(OC)c1NC(=O)CN1CCC(NC(=O)c2cccc(F)c2)CC1	0.33	0.6
CC(=O)Nc1cc(S(=O)(=O)Nc2ccc(C)cc2)c(C)cc1C	0.13	-0.24
C=C(C)Cn1c(SCC(=O)N/N=C/c2cccc(O)c2)nc2ccccc2c1=O	0.58	0.1
Nc1ccc(C(=O)Oc2ccc([N+](=O)[O-])cc2)cc1	0.44	-0.15
O=C(Nc1nc(-c2ccc(Cl)cc2)cs1)NC1CCCCC1	0.01	-1.3
S=C(NCCc1ccccc1)NCc1cccs1	2.2	-3.3
CC(C)=CC(=O)Nc1ccccc1Br	0.52	2
COc1ccc2c(c1)c1c(n2C(C)=O)C(OC(C)=O)=NCC1	0.21	-0.35
CCOC(=O)c1cc(-c2ccccc2)sc1NC(=O)c1ccc(OC)c(OC)c1	0.27	-0.75
